Methyltransferases = Primary Screen for Target Class Profiling of Small Molecule Inhibitors of Methyltransferases; purified enzyme, MTase-Glo SAH luminescence; hits give low values; calls only at 40 µM; 25,000 compounds, 3.9% hits; active = -50% or lower on at least one of six enzymes; inconclusive = the cases between; inactive = as a rule above -30% on all six;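 further: enzymes were COMT GAMT GNMT HNMT NNMT and PNMT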
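Each enzyme was reacted with SAM and its substrate, with compounds tested once at 40 uM; SAH formed was read by MTase-Glo luminescence.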
Calls only; i = inactive; ? = inconclusive; + = active, no number. On the % scale 0 is the no-effect control and ±100 the full control effect. A portion of the library; rates above refer to the full screens.

mol	Methyltransferases
CC(C)(C)c1cc(NC(=O)Nc2ccc(-c3cn4c(n3)sc3cc(OCCN5CCOCC5)ccc34)cc2)no1	i
O=C(NCc1ccnc2[nH]ccc12)c1cncc(Br)c1	i
CC1CCC2C(C)(C)CC(C)(CO)C2(O)C1C(=O)O (stereo not drawn)	i
O=C(OCC1=CC(O)C2C=CO[C@@H](O[C@@H]3O[C@H](CO)[C@@H](O)[C@H](O)[C@H]3O)C12)c1ccccc1 (stereo partly drawn)	i
CN(CC(=O)NCc1ccc(Cl)cc1)S(=O)(=O)c1ccc2[nH]c3c(c2c1)CCCC3	i
COc1ccccc1N1C(=O)CSc2c(c3ccccc3n2C)C1C(=O)NCc1ccccc1 (stereo not drawn)	i
CC(C)c1noc(-c2cn(C3CCN(C(=O)c4ccc5ccccc5n4)C3)nn2)n1 (stereo not drawn)	i
CC(CNC(=O)CCc1nnc2n(Cc3ccc(Cl)cc3)c(=O)c3ccccc3n12)c1ccccc1 (stereo not drawn)	i
COc1ccc(-n2nc3n(c2=O)CCN(C(=O)c2ccccc2F)C3)cc1	i
COc1cccc(C(=O)NC2CCN(c3cc(-c4cccs4)[nH]n3)CC2)c1OC	i
CC1(C(=O)NC2CCCCCC2)Cn2c(cc3sccc32)C(=O)N1CC1CCCO1 (stereo not drawn)	i
C[C@@H]1C[C@@H](O)[C@@]23CO[C@]2(CO)CCC[C@@H]3[C@@]12C[C@@H](c1ccoc1)OC2=O	i
CCc1ccc(CNC(=O)c2ccc3c(=O)nc4c(-c5cccc(F)c5)n[nH]n4c3c2)cc1	i
COc1cccc(C(CC(=O)NCC(C)C)c2c[nH]c3ccccc23)c1 (stereo not drawn)	i
COc1ccc2c(c1)CCC1C2CC[C@@]2(C)C1CC[C@@H]2NCCCCCCN1C(=O)CCC1=O (stereo partly drawn)	i

(cont.)
mol	Methyltransferases
COc1cc(COC2OC(CO)C(O)C(O)C2O)cc(OC)c1O (stereo not drawn)	i
O=C(N[C@@H]1CCOC[C@H]1OCc1cscn1)c1ccccc1-n1cccn1	i
CN1C(=O)COC[C@@H]1[C@H](O)c1ccc(NC(=O)Nc2ccccc2)cc1	i
CN1C(=O)c2cc(C(=O)NCc3ccccn3)nn2CC1(C)C(=O)NCc1ccccc1 (stereo not drawn)	i
CCc1ccc(N2C(=O)c3cc4occc4n3CC2(C)C(=O)NC2CCC(C)CC2)cc1 (stereo not drawn)	i
O=C(CCn1ccc2cc(S(=O)(=O)N3CCCCC3)ccc21)NCc1cccc(Cl)c1	i
COc1ccc(-c2nnc3n(CCCOC(C)C)c(=O)c4ccccc4n23)c(O)c1	i
Cc1cc(=O)n(CC(=O)NC(C)CCc2ccccc2)c(N2CCOCC2)n1 (stereo not drawn)	i
CCC(=O)N1CCc2ccc(C(=O)NC3CCCCC3)cc21	i
O=C(CCc1nnc2n(Cc3ccc(Cl)cc3)c(=O)c3ccccc3n12)NCCN1CCOCC1	i
Cn1c(=O)c2ccc(C(=O)NC3CCCC3)cc2n2c(=O)n(CC(=O)c3ccc(F)cc3)nc12	i
Cc1ccccc1Cn1nc2n(C(C)C)c(=O)c3ccc(C(=O)NC4CCCCC4)cc3n2c1=O	i
Cc1ccc(S(=O)(=O)NC(=O)NN2CCCCCC2)cc1	i
NC1CC(c2cc(N3CCN(c4nnc(C(F)(F)F)s4)CC3)ncn2)C1 (stereo not drawn)	i
Cc1cc(CNC(=O)[C@@H]2CCC[C@@H](NC(=O)C3CCOCC3)CN(C)C(=O)C2)no1	i

(further entries)
mol	Methyltransferases
COc1cc(NS(=O)(=O)c2cc3c(cc2C)n(C)c(=O)n3C)cc(OC)c1	i
O=C(NCCOc1ccccc1)[C@@H]1C[C@H](c2ccc(F)cc2)N([S+](=O)([O-])C2CC2)C1	i
COc1ccc(NC(=O)C2CCN(C(=O)c3ncn4c3COC(c3ccccc3)C4)CC2)cc1Cl (stereo not drawn)	i
COC1(c2ccccc2)CCN(C(=O)C2CCCN(C(=O)N(C)C)C2)CC1 (stereo not drawn)	i
COc1cc(C(=O)N2CCC(Cc3nc(C(C)C)no3)CC2)cc(OC)c1OC	i
COc1ccc(C2Oc3c(OC)cc(CCCO)cc3C2COC2OC(CO)C(O)C(O)C2O)cc1OC (stereo not drawn)	i
Cc1ccc(C)c(C(=O)Cn2nc3n(Cc4ccccc4)c(=O)c4ccccc4n3c2=O)c1	i
CC(C)OCCCn1c(=O)c2ccccc2n2c(=O)n(CC(=O)c3cccc(Cl)c3)nc12	i
Cn1cc(C(F)(F)F)nc1-c1ccc(OCC(O)CNCCOc2ccc(O)c(C(N)=O)c2)cc1 (stereo not drawn)	i
Cc1noc(C)c1-c1cc(-c2ccc(CN(C)C)cc2)cn2cncc12	+
COC[C@@H]1CNC[C@H]1c1ccccn1	i
O=C(N[C@@H]1C[C@H](Cn2cc(CN3CCS(=O)(=O)CC3)nn2)[C@@H](O)[C@H]1O)C1CCCC1	i
CN1C(=O)c2cc(C(=O)NC3CCCCCC3)nn2CC1(C)C(=O)NC1CCCCC1 (stereo not drawn)	i
CCN1C(=O)c2c(C(=O)NCc3ccc(Cl)cc3)ncn2CC1(C)C(=O)NC1CCCC1 (stereo not drawn)	i
CCCN1C(=O)c2c(C(=O)NCc3cccc(C)c3)ncn2CC1(C)C(=O)NCc1ccccc1 (stereo not drawn)	i

Reformatted: entries from further up
molecule: Cc1ccc(C)c(C(=O)Cn2nc3n(Cc4ccccc4)c(=O)c4ccccc4n3c2=O)c1
  Methyltransferases: i
molecule: Cn1cc(C(F)(F)F)nc1-c1ccc(OCC(O)CNCCOc2ccc(O)c(C(N)=O)c2)cc1 (stereo not drawn)
  Methyltransferases: i
molecule: CC(C)OCCCn1c(=O)c2ccccc2n2c(=O)n(CC(=O)c3cccc(Cl)c3)nc12
  Methyltransferases: i
molecule: COc1ccc(NC(=O)C2CCN(C(=O)c3ncn4c3COC(c3ccccc3)C4)CC2)cc1Cl (stereo not drawn)
  Methyltransferases: i

(list continues)
mol	Methyltransferases
CCn1cc(S(=O)(=O)N2C[C@@H](Oc3ccccc3)C[C@H]2C(=O)N2CCCC2)cn1	i
CN1C(=O)c2cc(C(=O)NCc3ccc(Cl)cc3)nn2CC1(C)C(=O)NCc1ccc(F)cc1 (stereo not drawn)	i
CCC(C)C(C(=O)O)N1Cc2c(OCC=C(C)C)c(C)c(OC)c(C(=O)O)c2C1=O (stereo not drawn)	i
COc1ccccc1OC1CCN(Cc2ccccc2C#N)CC1	i
COc1ccccc1/C=C/CN1CCC(n2cc(CN(C)C)nn2)CC1	i
CCCC1c2ccc(C)n2CCN1C(=O)Nc1ccc(CC(=O)OCC)cc1 (stereo not drawn)	i
CC(=O)O[C@]1(C(C)=O)CC[C@H]2[C@@H]3C[C@H](C)C4=CC(=O)CC[C@]4(C)[C@H]3CC[C@@]21C	i
CN(C)S(=O)(=O)c1ccc(Cl)c(-c2nnc(-c3ccccc3)o2)c1	i
CC1(C(=O)NC2CCCCCCC2)Cn2c(ccc2-c2ccco2)C(=O)N1CCN1CCCCCC1 (stereo not drawn)	i
CC(C)CNC(=O)c1ccc2c(=O)n(C)c3nn(Cc4ccc(F)cc4)c(=O)n3c2c1	i
C[C@H]1CN(C[C@H](Cc2ccccc2)C(=O)NCC(=O)O)CC[C@@]1(C)c1cccc(O)c1	i
COc1ccc(NC(=O)CSc2nnc3[nH]c(=O)c(C)nn23)cc1OC	i
Cc1cccc(-c2noc([C@@H]3Cc4nc[nH]c4CN3C(=O)c3ccc(-c4ccccc4)cc3)n2)c1	i
CCCn1cc(C(=O)N2C[C@@H](N(C)C)[C@H](c3ccc(C)cc3)C2)c(C)n1	i
CCN1c2cc(C(=O)NCc3cccc(OC)c3)ccc2C(=O)N2CCCCCC21 (stereo not drawn)	i

Continuation:
Compound | Methyltransferases
CC(C)(C)n1nnnc1C1CC2(CCOCC2)C(=O)N1Cc1cccs1 (stereo not drawn) | i
O=C(Cn1ccc2cc(S(=O)(=O)N3CCCCC3)ccc21)NCc1cccnc1 | i
C[C@H]1CC[C@@]2(OC1)O[C@H]1CC3[C@@H]4CC[C@@H]5C[C@@H](O[C@@H]6O[C@H](CO)[C@@H](O[C@@H]7O[C@@H](C)[C@H](O)[C@@H](O)[C@H]7O)[C@H](O)[C@H]6O[C@@H]6O[C@H](CO)[C@@H](O)[C@H](O)[C@H]6O)CC[C@]5(C)C4CC[C@]3(C)[C@H]1[C@@H]2C (stereo partly drawn) | i
NC(=O)c1ccccc1OC[C@@H]1CCCN2CCCC[C@H]12 | i
CC1CCC(NC(=O)C2(C)Cn3c(ccc3-c3ccco3)C(=O)N2Cc2ccccn2)CC1 (stereo not drawn) | i
Cc1noc(C)c1-c1nccc2c(=O)cc(-c3ccccn3)oc12 | i
O=C(O)C[C@H](O)C[C@H](O)/C=C/c1c(C2CC2)nc2ccccc2c1-c1ccc(F)cc1 | ?
CCN(CC)C(=O)CC[C@@H]1CNC(=O)[C@@H]2C[C@H](NC(=O)Nc3ccsc3)CN12 | i
CC(C)(Cc1ccccc1)NCC(O)c1ccc(O)c(NS(C)(=O)=O)c1 (stereo not drawn) | i
C=C(C)[C@@H]1CCC2=CC(=O)C[C@@H](C)[C@]2(C)C1 | ?
CCCn1c(=O)c2ccc(Cl)cc2n2c(=O)n(Cc3cccc(Cl)c3)nc12 | i
Cc1ccc(C(=O)N2CCC(N3C(=O)CCC3C(=O)NCc3cccnc3)CC2)cc1F (stereo not drawn) | i
CCc1cc2c(cc3n2CC(C)(C(=O)NC2CCCCCC2)N(CCCc2ccccc2)C3=O)s1 (stereo not drawn) | i
Cn1c(=O)c2ccc(C(=O)NC3CCCC3)cc2n2c(=O)n(Cc3cccc(Cl)c3)nc12 | i
CC(C)CCNC(=O)c1ccc2c(c1)nc(Nc1n[nH]c3ccc(-c4ccccc4OC(F)(F)F)cc13)n2C1CCC(O)CC1 (stereo not drawn) | ?
CC1CCC(NC(=O)C2(C)Cn3c(ccc3-c3ccccc3)C(=O)N2Cc2cccc(F)c2)CC1 (stereo not drawn) | i
CCCn1c(=O)c2ccc(C(=O)NC3CCCC3)cc2n2c(SCC(=O)NCc3ccccc3)nnc12 | i
Cc1nc([C@@H]2CN(C(=O)CCc3c[nH]c4ccccc34)C[C@H]2C(N)=O)n[nH]1 | i
CCOc1ccc(CN2C(=O)c3cc4sccc4n3CC2(C)C(=O)NC2CCCCC2C)cc1 (stereo not drawn) | i
CCCC1(CO)CCCN(CC(=O)NC(C)(C)CC)C1 (stereo not drawn) | i
COC(=O)[C@]1(C)CCC[C@@]2(C)C(=O)CC[C@H]3C(=O)C=C(CC[C@@H]21)C3O (stereo partly drawn) | i
CC(C)(C)c1nn2c(SCC(=O)Nc3cccc(F)c3)nnc2[nH]c1=O | i
CCc1cccc(NS(=O)(=O)c2ccc3[nH]c(=O)[nH]c3c2)c1 | i
C=CC(=O)c1ccc2ccccc2c1 | ?
Cc1cc2ncc(C(=O)NCC(C)(C)NCC(=O)N3CCC[C@H]3C#N)cn2n1 | i
CS(=O)(=O)Cc1ccc(-c2cccc(OCc3ccccc3F)c2)nc1 | i
CC(=O)N1CCN(C(=O)c2cnc(N)nc2-c2ccccc2)CC(O)C1 (stereo not drawn) | i
Cc1cc(CN2CC(Oc3ccc(F)c(F)c3)C2)no1 | i
Nc1ncnc2c1nc(Cl)n2C1OC2COP(=O)(O)OC2C1O (stereo not drawn) | i
O=c1cc(-c2ccncc2)oc2c(-c3cccc(CO)c3)nccc12 | i

Retrieved by structure from above (two):
Compound | Methyltransferases
CCCn1c(=O)c2ccc(C(=O)NC3CCCC3)cc2n2c(SCC(=O)NCc3ccccc3)nnc12 | i
CCCn1c(=O)c2ccc(Cl)cc2n2c(=O)n(Cc3cccc(Cl)c3)nc12 | i

(listing goes on)
Compound | Methyltransferases
Cn1c(=O)n(-c2ccc(C(C)(C)C#N)cc2)c2c3cc(C#Cc4cccnc4)ccc3ncc21 | i
Cc1cccc(Cn2nc3n(CC(C)C)c(=O)c4ccc(C(=O)NCC(C)C)cc4n3c2=O)c1 | i
COc1ccc(CNc2cc3c(cn2)CN(Cc2ccccc2)CCN3)cc1OC | +
C=CCS(=O)(=O)N1C[C@H]2OC(=O)N(CCc3cccc(Cl)c3)[C@H]2C1 | i
OCc1ccc(O[C@@H]2O[C@H](CO)[C@@H](O)[C@H](O)[C@H]2O)cc1 | i
O=C1CCCCC(CNC(=O)c2cccc(F)c2)N1 (stereo not drawn) | i
O=C(Nc1ccc2c(c1)OCCO2)N[C@@H]1C[C@H](CO)[C@@H](O)[C@H]1O | i
CCOC(=O)c1cc2n(n1)CC(C)(C(=O)NC1CCC(C)CC1)N(c1ccc(NC(C)=O)cc1)C2=O (stereo not drawn) | i
COc1ccc(-c2nnc(-c3ccc(Cl)c(S(=O)(=O)N4CCC(C)CC4)c3)o2)cc1OC | i
O=C(C1CCCN1C(=O)C1CCCC1)N1CCC(N2Cc3ccccc3C2=O)CC1 (stereo not drawn) | i
Cc1cc(S(=O)(=O)N[C@@H]2CCOC[C@H]2Oc2ccccn2)c(C)s1 | i
COc1ccc(C(=O)N2C[C@@H]3C[C@H](C2)c2ccc(NS(=O)(=O)c4ccc(OC)cc4)c(=O)n2C3)cc1 | i
Cc1cc(C)cc(N2C(=O)c3ccc(-c4ccco4)n3CC2(C)C(=O)NC2CCCC2)c1 (stereo not drawn) | i
Cc1nn(C)c(=O)n1C1CCN(C(=O)c2ccco2)CC1 | i
Cc1noc([C@@H]2C[C@H](NC(=O)C3CCCCC3)CN2C)n1 | i
NC(=O)[C@H](CC1CCCCC1)NC(=O)[C@@H]1CN(C(=O)Nc2ccccc2)CCN1S(=O)(=O)c1ccccc1 | ?
O=C1NCCCCCN(C(=O)Cc2cccc(F)c2)[C@H]2CCC[C@@H]12 | i
Cc1ccc(Cc2c(C)nc3nc(SCC(=O)NCCN4CCNCC4)nn3c2C)cc1 | i

Some of these compounds in order of molecular weight, descending.
Compound | Methyltransferases
COc1ccc(C(=O)N2C[C@@H]3C[C@H](C2)c2ccc(NS(=O)(=O)c4ccc(OC)cc4)c(=O)n2C3)cc1 | i
Cc1noc([C@@H]2C[C@H](NC(=O)C3CCCCC3)CN2C)n1 | i
O=C1CCCCC(CNC(=O)c2cccc(F)c2)N1 (stereo not drawn) | i
